Beta cell apopt: beta cell apoptosis inhibition; INS-1E cytokine-induced death, ATP luminescence, 48 h; percent of positive-control rescue, neutral wells zero; protection from apoptosis, % (test concentration not listed); 300,000 compounds, 0.8% hits; AID 435005;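 active means all replicates at 75% or more, or half of them and the mean; inconclusive means half reach 75% but not the mean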;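 further: 0% = cytokine-treated negative control wells and 100% = positive control rescue; higher means more ATP so stronger rescue from cytokine killing; wells of about 40 µL received 100 nL stock; the first replicate is given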
LANA-H2B inh: blocks KSHV LANA binding to histone H2A/H2B; Q9QR71; cell-free LANA-H2A/H2B peptide, fluorescence polarization; inhibition, % (concentration not given with the values); 320,000 compounds, 0.6% hits; in the data active means inhibition mostly above about 10%, no sharp cut-off; inactive means mostly below about 6.7%;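 further: stock transfer was 7.5 nL into about 10 µL; 0% = median of vehicle wells and 100% = median of positive control wells; one replicate is shown; the record names a cut of 25% in any replicate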
Target sequence (Q9QR71 whole entry, looked up): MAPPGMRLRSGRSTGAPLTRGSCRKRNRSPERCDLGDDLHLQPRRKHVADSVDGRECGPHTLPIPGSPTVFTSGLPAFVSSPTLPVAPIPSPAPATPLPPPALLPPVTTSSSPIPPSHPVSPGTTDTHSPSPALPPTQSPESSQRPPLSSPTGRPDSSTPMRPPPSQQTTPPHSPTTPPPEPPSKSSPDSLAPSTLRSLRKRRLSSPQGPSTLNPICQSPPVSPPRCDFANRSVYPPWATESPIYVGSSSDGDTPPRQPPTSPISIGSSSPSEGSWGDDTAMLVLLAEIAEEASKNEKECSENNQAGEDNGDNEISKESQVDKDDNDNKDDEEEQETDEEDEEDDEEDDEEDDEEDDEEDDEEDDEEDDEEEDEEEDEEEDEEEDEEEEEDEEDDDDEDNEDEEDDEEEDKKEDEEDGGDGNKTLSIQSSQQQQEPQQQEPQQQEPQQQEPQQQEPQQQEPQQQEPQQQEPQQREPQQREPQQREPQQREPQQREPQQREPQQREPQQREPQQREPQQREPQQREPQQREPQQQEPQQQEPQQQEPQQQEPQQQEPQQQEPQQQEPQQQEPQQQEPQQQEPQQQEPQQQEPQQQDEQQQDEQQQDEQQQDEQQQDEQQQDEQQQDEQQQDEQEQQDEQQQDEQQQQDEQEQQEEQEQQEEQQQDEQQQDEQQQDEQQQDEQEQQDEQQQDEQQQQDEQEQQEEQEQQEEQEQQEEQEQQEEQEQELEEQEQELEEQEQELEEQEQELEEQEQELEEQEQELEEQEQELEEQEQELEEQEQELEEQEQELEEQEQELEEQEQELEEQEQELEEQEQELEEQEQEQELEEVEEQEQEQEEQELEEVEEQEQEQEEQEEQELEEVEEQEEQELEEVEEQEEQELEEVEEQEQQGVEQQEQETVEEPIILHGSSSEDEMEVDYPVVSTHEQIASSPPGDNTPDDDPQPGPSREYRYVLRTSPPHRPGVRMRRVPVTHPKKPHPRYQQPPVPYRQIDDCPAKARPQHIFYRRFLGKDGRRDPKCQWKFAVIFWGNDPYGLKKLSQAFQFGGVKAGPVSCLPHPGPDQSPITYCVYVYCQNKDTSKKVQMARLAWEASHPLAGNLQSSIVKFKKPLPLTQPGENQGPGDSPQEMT
RanGTP-Imp inh: disruptors of Ran-importin-beta complex formation – biochemical, FRET, CFP-Ran, YFP-importin-beta, homogeneous, primary screen; cell-free CFP-Ran/YFP-importin-beta FRET ratio; inhibition, % (test concentration not listed); 300,000 compounds, 1.1% hits; AID 2216;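 active means most replicates above 15%; inconclusive means exactly half above 15%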;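 further: 0% = DMSO wells and 100% = Ran loaded with GDP instead of GTP; wells of about 40 µL received 100 nL stock; the first replicate is given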
Calb FLC: C. albicans growth modulation with fluconazole. growth inhibition, % (no concentration beside the values). C. albicans CaCi-2 (fluconazole-resistant clinical isolate) + fluconazole, Alamar Blue growth, 48 h. AID 1979. 300,000 compounds, 0.57% hits;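 active means most replicates above 75%; inconclusive means exactly half above 75%; inactive means most below 75%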;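 further: all wells also contain fluconazole at 8 µg/ml as a sub-toxic cotreatment; 0% = median of DMSO wells and 100% = median of geldanamycin control wells; wells of about 8 µL received 7.5 nL stock; the first replicate is given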
T cruzi repl: T. cruzi replication inhibition. T. cruzi beta-gal in NIH3T3, luminescence, 90 h. inhibition, % (no concentration beside the values). 300,000 compounds, 1.4% hits;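 active means mean inhibition across valid replicates above about 55%, limit read from the data; inconclusive means mean below that limit but half or more replicates reach it; inactive means mean below it, under half of replicates reach it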;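 further: signal also drops with host cell toxicity which is not excluded here; 0% = plate median of DMSO wells and 100% = zero luminescence signal; higher percent means less beta-gal luminescence so fewer parasites; stock transfer was 50 nL into about 50 µL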
Vif TR-FRET: inhibitors of Vif binding to APOBEC3G peptide, primary screen, biochemical, TR-FRET, GST-Vif 1-94, biotin-A3G peptide, dose response retest (AID 1117319) | TR-FRET GST-Vif / biotin-A3G peptide binding; higher % means a stronger effect; test concentration not given here; strong numbers were not always called active | 260,000 compounds, 0.57% hits | inhibition, %, or IC50 in µM where a hit was titrated;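 active means above the screen mean plus three standard deviations and confirmed in dose response; inconclusive means results disagree or hit not tested in dose response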;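 further: Vif residues 1-94 fused to GST binding biotinylated APOBEC3G peptide 110-148; 0% = full assay without inhibitor and 100% = GST in place of GST-Vif; retest series ran down from 100 µM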
MLL AF4-AF9 inh: inhibitors of human MLL-AF4/AF9 interaction. P42568. AlphaScreen, biotin-AF4 peptide binding to FLAG-AF9. inhibition, % at 10 µM. 350,000 compounds, 0.47% hits;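 active means every replicate reaching a set inhibition limit, whatever the replicate mean, cut at about 25% in these data; inconclusive means mean inhibition reaches that limit but some replicates miss it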;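 further: 0% = plate neutral control median and 100% = total signal loss; the record names both 10 and 1 µM as test concentration; the first replicate is given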
A1 inh: inhibitors of the anti-apoptotic protein A1, read as caspase activation | AID 2462 | MEF A1-2A-BIM cells, Caspase-Glo 3/7 luminescence, 3 h; percent of clofoctol response, vehicle zero | caspase activation, % (no concentration beside the values) | 330,000 compounds, 0.066% hits;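 active means over half of replicate activation scores above 10%, or exactly half above 10 with the replicate mean above 10; inconclusive means replicate mean below 10 yet half the replicates above 10; inactive means over half of replicates below 10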;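 further: wells of about 30 µL received 50 nL stock; many hits fall short of the cut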
* hit, by the source's call; u = inconclusive; x = no result given; & = joins results of further samples; ! = a repeat was not active. Random draw from the library; any-hit rate near 4.3%.

SMILES	Beta cell apopt	LANA-H2B inh	RanGTP-Imp inh	Calb FLC	T cruzi repl	Vif TR-FRET	MLL AF4-AF9 inh	A1 inh
Cc1ccc2c(c1)C(=O)CC1(CCCCCC1)O2	0	1.0	2.8	0	-8	-1%	-0.3	0.4
CNC(=S)N=Nc1c(O)[nH]c2ccccc12	3	x	-1.1	-9	-18	x	x	0.3
CCC(C)NC(=O)Nc1ccc2c(c1)N(C)C(=O)c1ccccc1S2 (stereo not given)	x	3.4	-1.1	-4	8	1%	x	-0.1
CCOC(=O)c1nn(-c2ccc(Cl)cc2)c2nnc(Cc3ccc(C)cc3)c(=O)n12	-6	x	5.5	3	2	x	x	0.8
CCOC(=O)CCCCC(=O)c1[nH]c(=O)[nH]c1CSc1nc(C)cc(C)n1	x	0.7	-4.5	5	-9	0%	x	1.2
COc1ccc2[nH]c(C)c(CCNC(=S)Nc3ccccc3OC)c2c1	-9	-2.6	-8.0	3	31	-1%	6.8	0.2
O=C(CCC1CCCCC1)NCc1cccnc1	-14	-1.7	-2.5	21	-9	x	-5.5	-0.2
COc1cc2c(cc1OC)C(C(=O)N1CCN(c3ccccn3)CC1)C(c1cccs1)N(C)C2=O (stereo not given)	-6	1.6	-2.4	5	2	u	x	-0.2
COc1ccccc1-c1nnc(SCC(=O)NCc2c(C)c(Cl)cc(C(C)C)c2O)o1	-7	-1.7	1.0	18	12	71%	-38	0.2
N/C(Cc1ccc([N+](=O)[O-])cc1)=N\OC(=O)c1ccccc1Br	3	-0.7	3.3	-14	13	x	x	0.0
Cc1[nH]ncc1N=Cc1ccc([N+](=O)[O-])cc1	-2	2.7	u	3	-7	7%	3.5	0.5
CNc1cc([N+](=O)[O-])ccc1OCc1ccccc1	1	-8.1	-0.6	13	6	0%	10	-0.8
CCCn1c(CN2CCCCC2C)nc2c1c(=O)n(C)c(=O)n2C (stereo not given)	-11	-5.5	-2.2	-5	4	-6%	-0.7	x
CCN(CC(=O)NCc1ccc(Cl)cc1)C(=O)c1ccc(C#N)cc1	-1	-2.1	-1.6	-5	6	1%	0.4	0.2
O=C(Nc1ccccc1Cl)c1ccn[nH]1	-1	1.5	0.5	-7	-10	0%	x	-5.4

Only A1 inh and T cruzi repl, for some of the entries so far:
| SMILES | A1 inh | T cruzi repl |
| --- | --- | --- |
| CCOC(=O)CCCCC(=O)c1[nH]c(=O)[nH]c1CSc1nc(C)cc(C)n1 | 1.2 | -9 |
| CCCn1c(CN2CCCCC2C)nc2c1c(=O)n(C)c(=O)n2C (stereo not given) | x | 4 |
| N/C(Cc1ccc([N+](=O)[O-])cc1)=N\OC(=O)c1ccccc1Br | 0.0 | 13 |
| CCOC(=O)c1nn(-c2ccc(Cl)cc2)c2nnc(Cc3ccc(C)cc3)c(=O)n12 | 0.8 | 2 |
| CNC(=S)N=Nc1c(O)[nH]c2ccccc12 | 0.3 | -18 |
| COc1ccccc1-c1nnc(SCC(=O)NCc2c(C)c(Cl)cc(C(C)C)c2O)o1 | 0.2 | 12 |

Later entries
SMILES	Beta cell apopt	LANA-H2B inh	RanGTP-Imp inh	Calb FLC	T cruzi repl	Vif TR-FRET	MLL AF4-AF9 inh	A1 inh
CC1CCN(Cc2nnc(-c3cccc(Br)c3)o2)CC1	-5	4.2	1.2	2	0	0%	-0.1	0.4
CCN(CC(=O)Nc1ccc(OC)cc1)C(=O)c1ccc2c(=O)n3c(nc2c1)CCC3	2	-0.8	x	x	x	-5%	-9.8	-0.7
Cn1cnnc1SCC(=O)Nc1ccc(F)cc1	-6	3.8	0.6	2	-8	x	-0.6	3.5
CCC(C)[C@H](NC(=O)[C@@H]1CSC2c3ccccc3C(=O)N21)C(=O)NC1CCCC1 (stereo not given in full)	0	0.9	-2.5	-6	14	7%	0.8	0.7
COc1ccc(CCN=C(N)NS(=O)(=O)c2ccc(C)cc2)cc1OC	-5	4.9	-1.9	34	-12	0%	-0.6	-1.4
Cc1ccccc1NC(=O)C1C2CCCCC21 (stereo not given)	2	0.1	0.0	-33	-6	x	-1.6	0.0
CN(C)Cc1c(O)ccc2c3c(c(=O)oc12)CCCCC3	-6	4.3	20*	6	-5	14%	x	0.0
CCOc1ccc(C(=O)NC(=S)Nc2ccc(N3CCC(C)CC3)cc2)cc1[N+](=O)[O-]	x	x	-2.2	-1	30	55µM*!	x	x
COc1ccc(/C=C/C(=O)N(Cc2ccccc2)c2ccccn2)cc1OC	4	12	1.8	-7	-7	x	-0.6	0.3
Cc1nn(Cc2ccccc2)c(C)c1N	-1	-1.1	4.1	-4	3	x	x	-1.2
Cc1ccc(SCC(=O)NC(C)(C)C)cc1	x	-0.2	4.8	-6	-1	0%	x	-0.7
COCCOC(=O)C1=C(C)NC(=O)NC1c1c(Cl)nc2c(C)cccn2c1=O (stereo not given)	-2	9.8	-7.0	0	-6	x	x	0.0
C(=N\N1CCN(C2c3ccccc3-c3ccccc32)CC1)/c1cccs1	-3	-4.3	2.4	-2	-1	9%	x	0.2
O=C(N/N=C/c1cccc([N+](=O)[O-])c1)C1CC(=O)N(c2ccc(Br)cc2)C1 (stereo not given)	-1	0.7	-0.3	-13	20	13%	1.7	u
CC(=O)Nc1ccc(C(=O)NNC(=O)c2cccs2)cc1	-2	-4.2	u	2	-28	x	-1.4	0.8

Vif TR-FRET: hit marks shown above
| compound | LANA-H2B inh | RanGTP-Imp inh | Vif TR-FRET | MLL AF4-AF9 inh |
| --- | --- | --- | --- | --- |
| CCOc1ccc(C(=O)NC(=S)Nc2ccc(N3CCC(C)CC3)cc2)cc1[N+](=O)[O-] | x | -2.2 | 55µM*! | x |

Additional entries follow.
SMILES	Beta cell apopt	LANA-H2B inh	RanGTP-Imp inh	Calb FLC	T cruzi repl	Vif TR-FRET	MLL AF4-AF9 inh	A1 inh
CC(C)c1nc2ccc(NC(=O)C34CC5CC(CC(C5)C3)C4)cc2[nH]1	7	3.6	-1.7	29	27	4%	x	0.9
O=C(CS(=O)(=O)c1c[nH]c2ccccc12)Nc1ccc(F)cc1	14	-0.5	0.3	-4	5	x	0.2	-0.7
COc1ccccc1Cn1[nH]nnc1=S	x	-0.7	4.0	-9	-5	-12%	-2.9	-0.9
CCCCc1nc(NCCNC(=O)c2ccccc2)c(C#N)c2c1CSC(C)(C)C2	x	-2.4	4.2	-2	20	-28%	x	0.5
Nc1nnc(N2CCCCC2)s1	-1	-3.5	-2.6	0	-4	4%	x	-0.2
CCC(CC)C(=O)N1CCN(Cc2ccc3c(c2)OCO3)CC1	4	-2.4	-2.9	-1	7	14%	x	-0.9
CCOc1ccccc1NC(=O)NC1(C(=O)N2CCOCC2)CCCCC1	-3	0.0	-3.3	5	-8	-2%	x	1.6
COc1ccccc1NC(=O)COC(=O)c1ccccn1	-1	-11	-1.3	-11	-7	x	-3.3	0.0
COc1ccc(OCCN2CCN(S(=O)(=O)c3ccccc3C(F)(F)F)CC2)cc1	-4	-0.9	x	x	x	-10%	0.2	-0.7
O=C(COc1cccc(F)c1)N[C@@H](Cc1ccccc1)c1nc2ccccc2[nH]1	1	-0.9	2.1	10	8	14%	-9.2	-0.5
CC(NC(=O)c1cccs1)C(S)c1ccccc1 (stereo not given)	4	-0.7	-3.5	1	-2	x	-2.3	-0.2
O=S(=O)(NCc1csc(-c2cccs2)n1)c1ccc(Cl)cc1	-4	3.7	2.5	u	9	-5%	-2.9	0.4
CCN1CCN(c2ccc(S(=O)(=O)N3CCCCC3)cc2NC(=O)Cc2ccccc2F)CC1	3	-3.3	3.7	-5	55*	6%	7.2	-0.5
Cc1cc2ncn(C(=O)c3ccc(F)cc3)c2cc1C	-5	2.4	-3.7	9	7	-3%	-10	0.5
COc1ccc(CN(C(=O)c2cccs2)c2ccccc2)cc1	-3	-3.5	1.6	27	3	3%	-0.5	2.5
COc1ccc(Cc2nc3ccc(C(=O)N4C[C@@H](C)O[C@@H](C)C4)cc3o2)cc1OC	1	3.0	0.2	1	u	0%	1.3	-0.1
O=C(C1=C[C@@H](c2coc3ccccc3c2=O)C[C@@H](OCCCCO)O1)N1CCOCC1	0	-1.3	-1.9	-2	-21	25%	-0.6&3.1	-0.3
CCOC(=O)c1ccc(S(=O)(=O)Nc2ccc(N3CCOCC3)cc2)cc1	-2	1.6	0.2	8	-1	x	5.4	0.5
COc1ccc(NC(=O)CSc2nnc(-c3cccs3)n2-c2ccccc2)cc1	1	1.6	1.2	29	3	-78%	x	1.1
Cc1occc1C(=O)N/N=C/c1ccc(Br)s1	4	4.2	0.9	-19	19	-6%	6.4	-0.4
CC1(C)CC(=O)c2cc3c(N)c(C(=O)NCc4ccccc4)sc3nc2C1	-5	0.6	5.2	2	15	-2%	x	3.1
CN(C)/C=C1\N=C(c2cccs2)OC1=O	-1	-6.3	-4.3	x	-5	4%	x	0.1
COc1ccc2c(c1)[nH]c1c(=O)n(N)cnc12	2	0.6	-5.3	8	3	x	-94	-0.5
COc1cc(NC(=O)Cn2cnc3sc(C)c(S(=O)(=O)N4CCN(C)CC4)c3c2=O)cc(OC)c1OC	4	-2.6	7.3	16	-15	u	x	0.2
CC(C)(C)OC(=O)N1CCN(C(=O)c2[nH]cnc2C(=O)N[C@@H](Cc2ccccc2)C(=O)OCc2ccccc2)CC1	-2	-9.9	-0.1	2	-11	x	8.6	0.5
O=c1[nH][nH]cc1C=Nc1ccccc1Cl	-2	-1.8	0.2	-7	0	12%	2.4	0.3
O=C(NC1C=CS(=O)(=O)C1)c1sc2ccccc2c1Cl (stereo not given)	-18	3.0	3.3	15	-23	1%	x	-1.0
COc1nsnc1NS(=O)(=O)c1ccc(NC(=S)NC(=O)c2ccncc2)cc1	0	9.5	2.4	16	6	16%	-16	-5.0
CCOC(=O)c1sc2nc3c(cc2c1N)COC(C)(CC)C3 (stereo not given)	-4	0.0	-3.8	-8	16	0%	x	-1.1
COC(=O)N/N=C/c1ccc([N+](=O)[O-])o1	1	-2.9	-0.6	10	55*	10%	x	0.2
COCCn1c(C)cc(C(=O)CSc2nc3ccccc3c(=O)n2Cc2ccco2)c1C	5	-2.5	u	-3	18	-16%	0.5	-0.4
Cn1c(Cc2ccccc2)nnc1SCC(=O)NC1CCCC1	-2	-2.7	3.0	25	1	2%	-1.6	-0.4
CCC(=O)Oc1ccc(-c2cnc3ccccc3n2)cc1	1	-3.0	1.6	-49	8	-11%	-45	-8.1
CCOc1ccc(OCCOc2cccc(C(F)(F)F)c2)cc1	3	5.6	-1.4	-2	8	72%	x	0.1
COC(=O)c1ccc(N2NC(=O)/C(=C/c3ccc(OC)c(OC)c3)C2=O)cc1	x	0.7	-2.6	4	-16	-1%	-0.1	-0.2
CNC(=O)COC(=O)/C=C/c1c(C)nn(-c2ccccc2)c1C	-1	2.8	-2.7	11	0	x	-115	1.8
CN1CCN(C(=O)c2ccc(COc3ccc(C(C)(C)C)cc3)o2)CC1	0	0.9	4.0	33	15	1%	x	0.2
CN(c1ccccc1)S(=O)(=O)c1cccc(C(=O)OCC(=O)Nc2ccc3[nH]c(=O)[nH]c3c2)c1	x	-3.8	u	-1	-3	3%	-50	0.9

Bioassay records (PubChem BioAssay)
